Screening results from PubChem BioAssay.
RE007 growth inh = less growth of the S. pombe RE007 Vpr strain. S. pombe RE007 Vpr strain, BacTiter-Glo ATP luminescence, 24 h; control for the full effect not named in the record. Potency, µM (series often up to 92.2 µM), for the others: at the top dose activity change, negative = less growth. actives 0.21% (n = 360,000); active = well fitted falling curve with a large enough effect; inconclusive = small, poorly fitted or top-dose-only effect; inactive = no such curve, though single readings can be large or run the other way;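 also: % is scaled to controls: 0 for no effect and ±100 for the full control effect; nearly all actives have a fitted effect of over 50% in size; the assay follows cell death caused by Vpr and the record does not say whether a fall means rescue or toxicity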
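Fission yeast RE007 carrying one integrated HIV-1 vpr copy, seeded at OD 0.01 in PMG+AL medium with 23 nL pinned compound. Grown 24 h at 30 degrees; viability read by BacTiter-Glo luminescence after 5 min.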
2A StopGo = FMDV 2A StopGo reporter, luciferase signal | actives 1.2% (n = 410,000) | human cells with a luciferase reporter of 2A StopGo recoding; control for the full effect not named in the record | AID 1159524 | Potency, µM (series often up to 57.9 µM), for the others: at the top dose signal change, negative = less light; active = well fitted falling curve with a large enough effect; inconclusive = small, poorly fitted or top-dose-only effect; inactive = no such curve, though single readings can be large or run the other way; tested in HEK293T cells; also: % is scaled to controls: 0 for no effect and ±100 for the full control effect; nearly all actives have a fitted effect of over 45% in size; luciferase light after 4 h
Cruzain inh noDet = cruzain (T. cruzi) inhibition without detergent; P25779; purified cruzain, Z-FR-AMC fluorescence, no detergent; Potency, µM, for the others: max response, negative = inhibition, actives largely listed as inhibitors; actives 2.3% (n = 200,000); AID 1476;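 also: plate controls were enzyme without inhibitor for no effect and buffer without enzyme for full effect; nearly all actives have a fitted effect of over 40% in size; top concentration of the series not given in the record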
Target sequence (P25779 123-467 limits assumed): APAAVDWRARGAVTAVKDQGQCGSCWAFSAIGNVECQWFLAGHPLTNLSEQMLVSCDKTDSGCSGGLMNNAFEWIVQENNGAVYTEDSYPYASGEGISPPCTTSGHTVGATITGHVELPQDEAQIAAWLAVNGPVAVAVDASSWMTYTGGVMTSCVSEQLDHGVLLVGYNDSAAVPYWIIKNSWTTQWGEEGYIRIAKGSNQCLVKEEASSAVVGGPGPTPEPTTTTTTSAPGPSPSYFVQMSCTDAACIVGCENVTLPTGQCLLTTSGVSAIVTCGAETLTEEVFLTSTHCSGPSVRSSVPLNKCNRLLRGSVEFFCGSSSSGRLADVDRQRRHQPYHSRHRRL
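Detergent-free condition (0.00005% Triton X-100) in acetate buffer pH 5.5 with DTT. 1.5 nM enzyme and compound were pre-mixed 15 min, then 2 uM Z-FR-AMC substrate added; reaction progress from fluorescence change between first and third reads (60 s).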
LASV entry inh = inhibitors of Lassa virus binding or cell entry. Potency, µM (highest dose often 37.9 µM), for inactives: top-dose activity change, negative = inhibition, usual class: inhibitors. Lassa virus pseudotype entry inhibition, cell reporter; control for the full effect not named in the record. AID 540256. actives 1.2% (n = 300,000); active means well fitted inhibition curve with a large enough effect; inconclusive means small, poorly fitted or top-dose-only effect, or effect the other way; inactive means flat fitted curve, though single readings scatter; tested in HEK293 cells; also: % is scaled to controls: 0 for no effect and ±100 for the full control effect; nearly all actives have a fitted effect of over 50% in size; luciferase read-out
MARV entry inh = blocks Marburg virus binding to or entry into cells. Marburg virus pseudotyped entry inhibition, cell reporter; control for the full effect not named in the record; about a third of the inactives were read at about 46 µM. Potency, µM (top dose mostly 37.8 µM), without a hit: at the highest dose activity change, negative = inhibition, most hits filed as inhibitors. actives 1.8% (n = 300,000). AID 540276; active = well fitted inhibition curve with a large enough effect; inconclusive = small, poorly fitted or top-dose-only effect, or effect the other way; inactive = flat fitted curve, though single readings scatter; tested in HEK293 cells; about a fifth of its hits are not listed in these tables; also: % is scaled to controls: 0 for no effect and ±100 for the full control effect; luciferase read-out
NS1 function inh = inhibitors of influenza NS1 protein function; S. cerevisiae slowed by influenza A NS1, growth recovery by OD600; Potency, µM (doses to about 46.1 µM), for inactives: at the highest dose activity, positive = more growth; actives 0.4% (n = 270,000); active means well fitted rising curve with a large enough effect; inconclusive means small, poorly fitted or top-dose-only effect; inactive means no such curve, though single readings can be large or run the other way; also: nearly all actives have a fitted effect of over 50% in size
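OD600 was taken as the measure of yeast growth restored by compound in an NS1-expressing S. cerevisiae strain. Cells had been washed out of glucose medium and diluted 1:100 into galactose -URA medium, pH 6.0.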
Cruzain Triton = inhibitors of Trypanosoma cruzi cruzain with detergent; AID 1478; purified cruzain, Z-FR-AMC fluorescence, 0.01% Triton; P25779; Potency, µM, without a hit: max response, negative = inhibition, hits mostly inhibitors; actives 0.43% (n = 200,000);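 also: plate controls were neutral wells for no effect and buffer without enzyme for full effect; nearly all actives have a fitted effect of over 40% in size; top concentration of the series not given in the record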
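Compounds were screened in titration against cruzain (1.5 nM) with 0.01% Triton X-100 to counter colloidal aggregation. Activity was the AMC fluorescence increase over 60 s after adding 2 uM Z-FR-AMC at pH 5.5.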
SARS PLpro yeast = inhibitors of SARS-CoV papain-like protease in yeast; S. cerevisiae expressing SARS-CoV PLpro, growth rescue; control for the full effect not named in the record; Potency, µM (series often up to 32.9 µM), inactives show at the highest dose activity, positive = growth rescue; actives 0.19% (n = 330,000); active means well fitted rising curve with a large enough effect; inconclusive means small, poorly fitted or top-dose-only effect; inactive means no such curve, though single readings can be large or run the other way; also: 0% is about no effect; nearly all actives have a fitted effect of over 55% in size; growth read by luminescence after 48 h
The depositor's hits bear a star; ? = inconclusive; · = not tested or not shown; & = joins results of further samples; [ ] = remark or other dose. Unless noted, calls follow the shape of the dose curve; as a rule, active = well fitted curve in the direction sought with a large enough effect; inconclusive = small, poorly fitted or top-dose-only effect, or another doubt; inactive = no such curve, though single readings can be large; an effect the other way counts as inactive or inconclusive. Potency is read from the fitted curve at half-maximal effect.

SMILES	RE007 growth inh	2A StopGo	Cruzain inh noDet	LASV entry inh	MARV entry inh	NS1 function inh	Cruzain Triton	SARS PLpro yeast
CCCCOc1nc2ccccc2nc1C(C#N)S(=O)(=O)c1ccccc1 (stereo not drawn)	4%	·	-4%	5%	0%	2%	-3.4%	-5%
CCOc1ccc(C(=O)OCC(=O)NC2CCCC2)cc1OCC	12%	1%	·	1%	1%	10%	·	-1%
COc1ccc(N=CC2=C(O)c3ccccc3C2=O)c(OC)c1	-5%	?	-12%	2.5µM*	?	-35%	0.2%	-2%
CCCCn1c(N)c(N(CCOC)C(=O)CSc2ccccc2C)c(=O)[nH]c1=O	32%	3%	·	0%	8%	·	·	-2%
COc1ccccc1NC(=O)CCN1C(=O)C2CC=CCC2C1=O (stereo not drawn)	5%	-24%	·	·	·	-7%	·	-2%
O=C(CSc1nnc2ccc(-c3ccccn3)nn12)NCC1CCCO1 (stereo not drawn)	3%	-13%	·	·	·	-2%	·	0%
COC(=O)Cc1[nH]nc2c1C(c1cc(OC)c(OC)c(OC)c1)C(C#N)=C(N)O2 (stereo not drawn)	7%	-24%	·	·	·	10%	·	-1%
Cc1ccc(OCC(=O)Nc2ccc(N3CCN(C(=O)c4ccco4)CC3)cc2)cc1C	3%	14µM*	·	-20%	?	5%	·	-1%
N#Cc1c2c(c(NCc3ccco3)n3c1nc1ccccc13)CCC2	-5%	-17%	?	8%	2%	4%	-1.1%	-3%
CCc1cccc(C)c1NC(=O)CSc1n[nH]c(-c2ccccc2)n1	·	?	0%	2%[46.1 µM]	·	·	1.9%	·
CCn1c(=O)n(CC)c2cc(N3CCCC3)c(NC(=O)c3ccccc3)cc21	-7%	-24%	·	?	?	-5%	·	-13%
Cc1cc(Br)ccc1SCC(=O)NCC(c1ccco1)N1CCCCC1 (stereo not drawn)	-23%	-23%	·	-18%	?	·	·	-1%
O=C(Nc1cccc(S(=O)(=O)N2CCCCC2)c1)c1cc2ccccc2o1	18%	-25%	·	?	?	·	·	1%
CCOc1ccc(NC(=O)CCC(=O)N/N=C/c2ccc([N+](=O)[O-])s2)cc1	-28%	-17%	-1%	?	?	-9%	-3.2%	-84%
Cc1cccc(-n2ncc(C(=O)N3CCN(c4ccc(C)cc4C)CC3)c2C2CCN(C(=O)OC(C)(C)C)CC2)c1	·	-5%	-5%	?	·	·	-1.4%	·
Cc1cccc(C)c1NC(=O)C(c1ccc(Cl)cc1Cl)N1CCCCC1 (stereo not drawn)	2%	?	-3%	10%	11%	-8%	4.0%	-5%
CN(C(=O)C1CCN(S(=O)(=O)c2ccccc2[N+](=O)[O-])CC1)C1CCCCC1	14%	-3%	·	·	?	·	·	4%
COc1cc(C)c(CN2CCN(c3ccccc3)CC2)cc1C	-17%	-26%	13%	-25%	?	-9%	-5.4%	-3%
CCCCCCn1c(SCC(=O)Nc2cc(C)on2)nc2ccccc2c1=O	-1%	7%	-27%	?	?	5%	-5.5%	-2%
COc1ccc(NC(=O)C2(c3cccs3)CCOCC2)cc1Cl	·	-26%	8%	-3%[46.1 µM]	·	·	-2.3%	·
CCOc1cccc(-c2nnc3n2N=C(c2cc(OC)ccc2OC)CS3)c1	0%	?	?	-9%	-7%&-7%	9%	-6.6%	-80%
O=C(Nc1ccc(N2CCOCC2)c([N+](=O)[O-])c1)c1ccco1	4%	24%	·	?	17%[46.1 µM]	-10%	·	0%
Cc1cccc(NC(=O)CSc2nc3c([nH]c4ccccc43)c(=O)n2C)c1	3%	17%&34%	-12%	?	·	8%	-0.2%	0%
COc1cc([N+](=O)[O-])ccc1NC(=O)C[n+]1cccc(C(C)=O)c1	4%	1%	·	-3%	-4%[14.2 µM]	·	·	0%
CCOc1cc(NS(=O)(=O)c2ccc(OC)cc2)c(OCC)cc1NC(=O)c1ccco1	-4%	-7%	?	-13%	?	-8%	-9.0%	24%
COc1cccc(-n2cc(-c3ccc(F)cc3)[nH]c2=S)c1	12%	47%[activator]	·	·	·	-12%	·	-2%
CCCCOc1ccc(C(=O)N/C(=C/C=C/c2ccccc2)C(=O)NC)cc1	0%	1%	24%	?	44%	8%	-12%	-15%
COC(=O)C1=C(C)N(Cc2ccco2)C(=O)N[C@@H]1c1cccc(C(F)(F)F)c1	·	·	-6%&-2%	-22%	5%&5%	-15%	3.0%&-8.7%	18%
O=C(O)C1CCC(NSc2ccccc2[N+](=O)[O-])CC1 (stereo not drawn)	-19%	-15%	·	·	·	0%	·	-3%
O=C(c1nc(-c2ccccc2)n(-c2ccccc2)n1)N1CCN(S(=O)(=O)c2ccccc2)CC1	11%	?	11%	?	-24%[46.1 µM]	9%	-2.0%	0%
Cc1cccc(NC(=O)c2cc(-c3cc(C)ccc3O)n[nH]2)c1	-9%	68%[activator]	·	?	?	3%	·	-1%
CCC1CCCCN1CCCNC(=O)Cn1ncc2c([nH]c3ccc(C)cc32)c1=O (stereo not drawn)	-11%	-10%	·	19%[46.1 µM]	-15%[46.1 µM]	-6%	·	?
C=CCc1cccc([C@@H]2[C@@H](C)CC[C@H]3C(=O)N4[C@@H](c5cc(OC)c(OC)c(OC)c5)c5[nH]c6ccccc6c5C[C@H]4C(=O)N23)c1	·	·	?	?	-12%	22µM*	-1.2%	0%
CCOC(=O)C1CCCN(c2c(NCCN3CCCCC3C)c(=O)c2=O)C1 (stereo not drawn)	0%	-4%	2%	·	·	-6%	5.7%	2%
O=C(Nc1ccc(F)c(Cl)c1)Nc1csc2ccccc12	-7%	10%	·	?	?	-5%	·	-4%
COC(=O)c1oc2ccc(Cl)cc2c1NC(C)=O	14%	0%	2%	0%	13%	?	-1.9%	-2%

5 entries already listed, arranged by SMILES length, rising.
SMILES	RE007 growth inh	2A StopGo	Cruzain inh noDet	LASV entry inh	MARV entry inh	NS1 function inh	Cruzain Triton	SARS PLpro yeast
O=C(O)C1CCC(NSc2ccccc2[N+](=O)[O-])CC1 (stereo not drawn)	-19%	-15%	·	·	·	0%	·	-3%
Cc1cccc(NC(=O)c2cc(-c3cc(C)ccc3O)n[nH]2)c1	-9%	68%[activator]	·	?	?	3%	·	-1%
Cc1cccc(C)c1NC(=O)C(c1ccc(Cl)cc1Cl)N1CCCCC1 (stereo not drawn)	2%	?	-3%	10%	11%	-8%	4.0%	-5%
CCOc1cccc(-c2nnc3n2N=C(c2cc(OC)ccc2OC)CS3)c1	0%	?	?	-9%	-7%&-7%	9%	-6.6%	-80%
O=C(Nc1ccc(N2CCOCC2)c([N+](=O)[O-])c1)c1ccco1	4%	24%	·	?	17%[46.1 µM]	-10%	·	0%

(cont.)
SMILES	RE007 growth inh	2A StopGo	Cruzain inh noDet	LASV entry inh	MARV entry inh	NS1 function inh	Cruzain Triton	SARS PLpro yeast
CCOc1cc(/C=N\NC(=O)Cn2nnc3ccccc32)ccc1O	3%	8%	·	-11%	?	-2%	·	5%
COc1ccc(-c2nnc(SCC(=O)c3cccs3)o2)c(OC)c1	1%	61%[activator]	?	-17%	?	-12%	-7.2%	-6%
Cc1ccc2c(c1C)NC(=O)CC(c1ccccc1O)=N2	-7%	0%	·	3%	2%	-4%	·	3%
COc1ccc(C2=C(C(C)=O)Sc3nnc(-c4ccccc4)n3N2C(C)=O)cc1	·	-19%	10%	-9%[46.1 µM]	·	·	0.3%	·
CCOc1ccccc1NC(=O)Cn1nnc(C(=O)Nc2ccccc2Cl)c1N	-4%	-25%	-3%	-6%	-14%&6%	2%	-4.6%	-4%
CCOc1ccc(/C(CCC(=O)O)=N/NC(=O)c2cccc(S(=O)(=O)Nc3ccccc3OC)c2)cc1	14%	6%	·	-6%[46.1 µM]	-4%[46.1 µM]	·	·	3%
COc1ccc(N2CCN(CC(=O)Nc3cc(C)cc(C)c3)CC2)cc1	4%	-17%	·	·	·	-23%	·	2%
COc1ccc(CN2CN(C3CCCC3)CSC2=S)cc1	-7%	-21%	·	-13%	?	·	·	-1%
COc1ccc(CCNc2ccc(C)cc2)cc1	11%	16%	2%	-4%	14%&14%	-7%	-6.3%	9%
COc1cccc(-c2nc(CS(=O)(=O)CC(=O)N3CCOCC3)c(C)o2)c1	6%	-12%	·	5%[46.1 µM]	-21%[46.1 µM]	6%	·	?
Cc1cc2c(=O)[nH]c(Cc3ccccc3)nc2s1	8%	-10%	-2%	15%	?	6%	2.1%	-9%
O=[N+]([O-])c1cc([N+](=O)[O-])c2c(=Nc3ccccc3)n(-c3ccccc3)n(O)c2c1	-13%	?	·	?	-8%[46.1 µM]	·	·	-28%
COc1ccccc1/C=C/c1nc(C#N)c(N2CCN(C)CC2)o1	·	-16%	25µM*	-28%[46.1 µM]	0%[46.1 µM]	·	-29%	·
COc1ccc(NC(=O)CN2C(=O)/C(=C3\SC(=S)N(CCC(=O)O)C3=O)c3ccccc32)cc1	9%	-16%	·	·	·	-13%	·	-3%
COc1ccc(NC(=O)CN(C)C(=O)C(CCSC)NC(=O)c2ccccc2)cc1 (stereo not drawn)	-5%	33%[activator]	·	2%	-4%[46.1 µM]	4%	·	5%
Cc1cccc(NC(=O)[C@@H]2CCCN2C(=O)OC(C)(C)C)c1	0%	-22%	·	?	?	1%	·	0%
CCSc1ccc2nnc(-c3cccs3)n2n1	6%	-21%	·	·	-1%[46.1 µM]	·	·	-6%
O=[N+]([O-])c1ccc(-n2nnnc2CN2CCOCC2)cc1	3%	-13%	·	-19%	3%[46.1 µM]	4%	·	2%
Cc1nc2oc3ccccc3c(=O)c2cc1C(=O)O	-17%	18%	·	20%[46.1 µM]	9%[46.1 µM]	1%	·	0%
COc1ccc(-c2nc(C#N)c(NC(C)C)o2)cc1	11%	·	-6%	5%	1%	-14%	-20%	-1%
COc1cc(C(=S)N2CCOCC2)ccc1OS(=O)(=O)c1ccccc1[N+](=O)[O-]	0%	23%	21%	-1%	16%[46.1 µM]	26%	-2.0%	-4%
CCCn1nnc(NC(=O)C(C)Oc2ccc(Cl)cc2Cl)n1 (stereo not drawn)	1%	-15%	-28%	19%	3%	-21%	-1.5%	-16%
